Anaer choline gr = inhibitors of anaerobic choline-dependent gram-negative bacterial growth | Gram-negative bacterium anaerobic choline minimal medium, absorbance growth; stronger effect = lower value; many inactives read as strong as hits in the columns shown | AID 1963822 | 0.2% of 55,000 active | calls only;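 active means growth z-score on choline under -2 at 7 or 20 h with little or no fall on glycerol, limits in tiers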;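 further: stock transfer was 300 nL into about 50 µL; the organism is E. coli; final concentration not given here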
Anaer choline gr early = second read-out of Anaer choline gr, no call of its own (marks repeat the call); z-score; measured here: choline growth z-score, timepoint 1;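 score of optical density at 7 h as mean of two plates; lower means less growth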
The depositor's hits bear a star; i = inactive; & = joins results of further samples.

The line under a structure holds: Anaer choline gr	Anaer choline gr early
1: CCOc1ccc(C2CC(=O)Nc3c2c(C)nn3-c2ccc3nnc(C)n3n2)cc1OCC (stereo not given)
    i	-0.22
2: O=C(CCCN1CCC(O)(c2ccc(Br)cc2)CC1)c1ccc(F)cc1
    i	-0.83
3: COc1ccc(S(=O)(=O)N2CSC[C@@H]2C(=O)NCCc2csc(C)n2)cc1OC
    i	0.12
4: COc1cc(C2CC(=O)Nc3nc(N)[nH]c(=O)c32)ccc1OCc1ccccc1 (stereo not given)
    i	0.33
5: Cc1nn(C)c(C)c1CCN(C)S(=O)(=O)c1ccc(Br)s1
    i	0.51
6: CC(C)C(=O)Nc1ccc(N2CCC(C(N)=O)(N3CCCCC3)CC2)cc1C(=O)O
    i	-1.7
7: Cc1nnc2ccc(-c3noc(-c4cc(F)ccc4F)n3)cn12
    i	-0.53
8: O=C(CCCN1C(=O)CSc2ncccc21)N1CCN(c2ccccn2)CC1
    i	-1.5
9: Cc1cc(-c2nn3c(C4CCCCC4)nnc3s2)no1
    i	0.93
10: Cc1cc(C)n(-c2nc3ccccc3nc2NCc2ccc(F)cc2)n1
    i	0.84
11: NS(=O)(=O)c1ccc(CCNC(=O)CCCCCn2c(=O)[nH]c3ccsc3c2=O)cc1
    i	-0.37
12: COc1ccc(C2CC(=O)c3cc(-c4nc(-c5ccc(C)cc5)cs4)c(=O)[nH]c3C2)cc1 (stereo not given)
    i	-0.29
13: COc1cc(C)c(S(=O)(=O)N2CCc3cc4cccc(C)c4nc32)cc1C
    i	0.71
14: CCOc1cc(CNCCSc2nnnn2C)ccc1OCc1ccccc1
    i	0.5
15: Cc1ccc(N2CCN(c3nccn4nc(-c5ccc(Cl)cc5)cc34)CC2)cc1
    i	-0.74
16: O=C(CCC(=O)N1CCN(c2nc3cccnc3s2)CC1)N1CCN(c2ccccn2)CC1
    i	-0.19
17: O=C(NCc1ccc(Cl)cc1)C1CCn2c(nc3ccccc32)C1 (stereo not given)
    i	-0.68
18: CCc1cc2c(NCCCOC)ncnc2s1
    i	-0.9
19: CCCCCCCCc1ccc(-c2ccc(C(=O)O)cc2)cc1
    i	0.82&1.3
20: Cn1nc(-c2ccccc2F)c2cc(C(=O)Oc3ccc4cnccc4c3)sc21
    i	0

Continued; it opens with the two that closed the last part.
The line under a structure holds: Anaer choline gr	Anaer choline gr early
19: CCCCCCCCc1ccc(-c2ccc(C(=O)O)cc2)cc1
    i	0.82&1.3
20: Cn1nc(-c2ccccc2F)c2cc(C(=O)Oc3ccc4cnccc4c3)sc21
    i	0
21: Cc1ccccc1-c1csc2c(=O)[nH]cnc12
    i	-2.2
22: CCOc1ccc(CCN2C(=O)CCC2(C)C(=O)NC2CCCC2)cc1OCC (stereo not given)
    i	-1
23: Cn1cc(/C=C/c2nc3ccccc3c(=O)n2CCc2ccccc2)c2ccccc21
    i	-1
24: CC(C)c1ccc2nc(-c3cccc(NS(=O)(=O)c4cnc[nH]4)c3)ccc2c1
    i	0.39
25: Cc1nc(N(C)C)cc(N2CCN(C(=O)c3ccccc3C)CC2)n1
    i	0.27
26: Cc1cc(C)c(S(=O)(=O)N2CCCC2c2nc(-c3ccccc3)no2)c(C)c1 (stereo not given)
    i	0.96
27: CCOc1ccc(NC(=O)Nc2c(-c3ccccc3)[nH]c3ccccc23)cc1
    i	-0.69
28: COCCCNC(=O)c1cn(C)c2c(c(C)nn2-c2ccc(F)cc2)c1=O
    i	-0.21
29: Cc1ccc(-n2nc(C(=O)N(C)c3ccc(F)cc3)c3c4ccccc4n(C)c3c2=O)cc1
    i	1.6
30: COc1ccccc1N1CCN(C(=O)c2ccc3c(c2)CCCN3S(=O)(=O)c2ccccc2)CC1
    i	1.5
31: O=C(CSc1nnc(-c2ccc3c(c2)OCO3)o1)N1CCc2ccccc2C1
    i	0.96
32: COc1ccc(-c2nc(Nc3ccc(C)c(F)c3)c3ccccc3n2)cc1
    i	2.6
33: Cc1ccc(NC(=O)C2CCN(c3ncnc4onc(C)c34)CC2)c(C)c1
    i	1.2
34: Cc1ccc(-c2noc(C3CCCN3S(=O)(=O)c3ccc(NC(=O)CC(C)C)cc3)n2)cc1 (stereo not given)
    i	-0.31
35: Cc1cc(OCc2nc(C)c(C(=O)Nc3nccs3)s2)ccc1Cl
    i	-0.53
36: CCOc1ccccc1-n1cc2c(c1-c1ccc(C)cc1)c(=O)n(C)c(=O)n2C
    i	0.49
37: CCOC(=O)C1CCN(C(=O)c2cnn3c(C(F)(F)F)cc(-c4cccc(OC)c4)nc23)CC1
    i	-0.53
38: CCOc1ccc(S(=O)(=O)N2CCc3c(c(-c4nnc(SCC)n4CC)nn3C)C2)cc1
    i	-1
39: CC(C)n1cc(S(=O)(=O)N2CCN(c3ccccc3)CC2)c2cccnc21
    i	0.38
40: CCC(=O)N1CCc2c(c(C(=O)NCc3cccc(C)c3)nn2C)C1
    i	-0.58
41: O=S(=O)(c1cn(Cc2noc(Cc3ccc(Br)cc3)n2)cn1)N1CCCCC1
    i	-0.63
42: Cc1noc2ncnc(Nc3cccc(Cl)c3)c12
    i	-2.5
43: Cc1cccc(NC(=O)CCn2nc(C(=O)Nc3ccccc3)ccc2=O)n1
    i	2
44: Cc1nn(-c2ccccc2)c2ccn(CC(=O)N3CCN(c4ccccc4Cl)CC3)c(=O)c12
    i	-0.84
45: COc1cccc(-c2noc(-c3cn(-c4ccccc4)c(=O)c4ccccc34)n2)c1
    i	0.58
46: CCC(C)NS(=O)(=O)c1cc(-c2nc(C)cs2)n(C)c1C (stereo not given)
    i	0.72
47: CCOC(=O)c1cnc(NCc2cccc(OC)c2)c2ccccc12
    i	0.49
48: COc1ccc(C(CNC(=O)c2cc(-c3ccc(Br)cc3)on2)N2CCCC2)cc1 (stereo not given)
    i	0.34
49: CC(C)(C)c1ccc(-c2nc3nc(CN4CCCC4)cc(=O)n3[nH]2)cc1
    i	-1.4
50: CCOC(=O)c1c(-c2ccccc2)csc1NC(=O)c1nc(S(=O)(=O)CC)ncc1Cl
    i	-0.92
51: CN(C)c1ccc(CNC(=O)c2cccc(N3CCCS3(=O)=O)c2)cc1
    i	-1.6
52: Cc1ccc(CCNC(=O)c2ccc3c(c2)NC(=O)C2CCCN32)cc1 (stereo not given)
    i	1.4
53: CC(C)(C)c1csc(-c2csc(S(=O)(=O)N3CCN(c4ccccn4)CC3)c2)n1
    i	0.28
54: CCc1nc2c(=O)oc3ccccc3c2n1C
    i	0.69
55: CC(=O)Nc1ccc(S(=O)(=O)N2CCCC2c2c(C)noc2C)cc1 (stereo not given)
    i	0.12
56: COc1ccc(-n2nc(C(=O)N3CCN(C4CCCCC4)CC3)c(=O)n(C)c2=O)cc1
    i	-1.8
57: CCCn1nnc2cc(-c3noc(-c4sc(C)nc4C)n3)ccc21
    i	0.08
58: Cc1ccc(Cl)cc1NC(=O)C1CCCN(S(=O)(=O)Cc2ccc(F)cc2)C1 (stereo not given)
    i	1.2
59: CC(C)Cn1c(=O)c2sccc2n2c(CCC(=O)NC3CC3)nnc12
    i	-0.51
60: O=C(Nc1ccccc1)N1CCC(n2cnc3cccnc32)CC1
    i	-1.1
61: COC(=O)Cn1nc2ccc(S(=O)(=O)N3CCSCC3)cn2c1=O
    i	0.15
62: COc1cccc(CSc2nnc3n(CC4CCCO4)c(=O)c4sccc4n23)c1 (stereo not given)
    i	0.5
63: COC(=O)c1cc(C(=O)Nc2cccc(C)c2C)c(=O)[nH]c1C
    i	-0.09
64: CCN(CC)C(=O)CCc1nc(-c2nn(-c3ccc(F)cc3)c(=O)n(C)c2=O)no1
    i	0.28
65: O=C(c1ccc(OCCCc2cnc[nH]2)cc1)C1CC1
    i	-0.8&-0.5
66: CC(C1CC1)n1nccc1NC(=O)COc1ccc(F)cc1 (stereo not given)
    i	-0.27
67: CCc1ccccc1NC(=O)NCCn1c(-c2ccc(C)cc2)nc2ccccc21
    i	0.87
68: CC(C)c1cc(C2CCCN2C(=O)c2ccsc2)no1 (stereo not given)
    i	-0.5
69: CN1CCN(c2nc(-c3ccncc3)nc3c2CCC3)CC1
    i	-0.53
70: CCN(C(=O)CSc1nc2nccnc2c(=O)n1Cc1ccccc1Cl)c1ccccc1
    i	-0.28
71: CC(C)n1nc(SCC(=O)Nc2ccccc2)n2c(=O)c3c(nc12)-c1ccccc1CC3(C)C
    i	-0.23
72: NC(=O)CSc1nnc(-c2cccc(Cl)c2)o1
    i	0.35
73: CCS(=O)(=O)c1nc2ccc(NS(=O)(=O)c3ccc(F)c(F)c3)cc2s1
    i	-0.1
74: CCN1CCN(C(=O)CN2C(=O)CCCc3ccccc32)CC1
    i	0.34
75: CC(=O)Nc1ccc(S(=O)(=O)Nc2ccc3c(c2)N(C(=O)c2ccccc2)CCC3)cc1
    i	-0.22
76: COc1ccc(OC)c(C2CCN(c3ccc(-c4nc(-c5ccc(F)cc5)no4)nn3)C2)c1 (stereo not given)
    i	-0.21
77: CC(C)CCNC(=O)C1CCCN1C(=O)c1ccc(NS(=O)(=O)c2ccccc2)cc1 (stereo not given)
    i	-0.46
78: O=C(NC1CCCCC1)c1cccc(-c2cc(NC3CCCCC3)ncn2)c1
    i	-0.92
79: O=S(=O)(c1ccccc1)n1nc(-c2cccnc2)nc1NCc1ccccc1
    i	-0.86
80: O=S(=O)(c1cc(-c2nnc(-c3ccccc3)o2)ccc1F)N1CCN(c2ccccc2)CC1
    i	-1.2

Continued.
The line under a structure holds: Anaer choline gr	Anaer choline gr early
81: COc1cc(NC(=O)C2CCCN(c3nc4cccnc4s3)C2)cc(OC)c1 (stereo not given)
    i	-0.07
82: CCCNC(=O)N1CCC(c2nc(C)cs2)CC1
    i	0.18
83: CC(C)CCNC(=O)C1CCCN(S(=O)(=O)N2CCCC(C(=O)NCCC(C)C)C2)C1 (stereo not given)
    i	0.81
84: Cc1ccc(-c2nn3c(C)nnc3s2)cc1
    i	-0.43
85: CCOc1ccccc1NC(=O)C1CCCN1S(=O)(=O)c1ccc2c(c1)C(C)(C)C(=O)N2C (stereo not given)
    i	-0.91
86: CNC(=O)CCc1nc2sc3c(c2c(=O)[nH]1)CCC(C)C3 (stereo not given)
    i	-2
87: O=S(=O)(c1ccccc1)c1nc(-c2ccccc2)oc1N1CCc2ccccc2C1
    i	-0.17
88: CCCn1c(CCc2ccccc2NS(=O)(=O)c2c(C)n[nH]c2C)nc2ccccc21
    i	-1.1
89: CCCc1noc(-c2cc(S(=O)(=O)N3CCOCC3)ccc2OC)n1
    i	0.17
90: Cc1noc2ncnc(NC3CC3)c12
    i	-1.6
91: Cc1cccc(-n2cc[nH]c(=O)c2=O)c1C
    i	0.52
92: Cc1cc2c(cc3n2CC(C)(C(=O)NC2CCCCC2)N(Cc2ccc4c(c2)OCO4)C3=O)o1 (stereo not given)
    i	0.21
93: O=C(NCc1c(-c2ccccc2)nc2n1CCS2)c1ccc(Br)cc1
    i	-0.24
94: CN(CC1(C)CCOCC1)S(=O)(=O)c1cccc(C(F)(F)F)c1
    i	-0.62
95: Cc1ccccc1NCc1cccn1-c1nnc(N2CCN(c3ccccc3)CC2)s1
    i	0.41
96: Nc1ccc(-c2cc(=O)n3[nH]cnc3n2)cc1
    i	0.23
97: Cc1ccc(C2=NS(=O)(=O)N(C)C(C(=O)Nc3ccc(F)cc3F)=C2)cc1
    i	0.32
98: c1cc(N2CCOCC2)ccc1-c1noc(-c2ccc3c(c2)OCO3)n1
    i	-0.87
99: Cc1cc(C)cc(C(=O)NCCc2sc(-c3cccc(F)c3)nc2C)c1
    i	-0.19
100: O=C(NC1CCN(Cc2ccccc2)CC1)c1noc2c1CCc1sccc1-2
    i	-0.13
101: C=CCn1c(=O)c(=O)n(Cc2ccc(C(=O)NCCCSCCC)cc2)c2ccccc21
    i	0.72
102: Cc1noc2ncn(Cc3c(F)cccc3Cl)c(=O)c12
    i	-0.25
103: O=C(CCS(=O)(=O)c1ccc(Cl)cc1)Nc1nc(-c2ccncc2)cs1
    i	0.6
104: Cn1c(=O)n(C)c2cc(S(=O)(=O)CC(=O)O)ccc21
    i	0.64
105: Cc1nn(CC(=O)NCC2CCCO2)c(=O)c2cc3ccccc3n12 (stereo not given)
    i	0.55
106: CC1CCN(c2cc(NCc3ccccc3)c3c4c(onc24)-c2ccccc2C3=O)CC1
    i	0.19
107: COc1ccc(-c2nn3c(N4CCN(C)CC4)cc(C)nc3c2C)cc1OC
    i	-0.45
108: CC(=O)N(Cc1ccc2c(c1)CN(C(=O)Nc1ccc(C)c(Cl)c1)CCO2)c1ccc(C)cc1
    i	0.18
109: CCOc1ccc(NC(=O)CN2C(C(=O)OC)=C(c3ccccc3)c3cc(Cl)ccc3S2(=O)=O)cc1
    i	1.1
110: CCOc1ccc(NS(=O)(=O)c2cc(-c3nc(C)c(C)s3)sc2C)cc1
    i	1.2
111: Fc1ccc(OCc2nn3c(-c4ccccn4)nnc3s2)cc1
    i	1
112: Cc1c(NC(=O)C2CCN(S(=O)(=O)Cc3ccccc3)CC2)c(=O)n(-c2ccccc2)n1C
    i	1.1
113: CCOc1ccc(CCNC(=O)c2ccc(-n3nnc4cccnc43)cc2)cc1OCC
    i	0.9
114: CSc1ncn(-c2nc(N(C)C)nc(N3CCCCCC3)n2)n1
    i	0.38
115: Cc1ccc(-c2csc3ncn(Cc4ccncc4)c(=O)c23)cc1
    i	-0.76

Entries of single compounds as entered above. Order of screens: Anaer choline gr	Anaer choline gr early
COc1ccc(-c2nn3c(N4CCN(C)CC4)cc(C)nc3c2C)cc1OC is listed with i	-0.45
C=CCn1c(=O)c(=O)n(Cc2ccc(C(=O)NCCCSCCC)cc2)c2ccccc21 is listed with i	0.72
CCOc1ccc(NS(=O)(=O)c2cc(-c3nc(C)c(C)s3)sc2C)cc1 is listed with i	1.2

Quoted at random: two compounds from above.
The line under a structure holds: Anaer choline gr	Anaer choline gr early
113: CCOc1ccc(CCNC(=O)c2ccc(-n3nnc4cccnc43)cc2)cc1OCC
    i	0.9
104: Cn1c(=O)n(C)c2cc(S(=O)(=O)CC(=O)O)ccc21
    i	0.64

Some of the compounds tested; the hit share may differ from the screen's.
